Vaccinia stage: Vaccinia orthopox stage-specific inhibition; 0.01% of 89,000 active; AID 1053133; activity change (mCherry), % (concentration not given with the values); Vaccinia-infected cells, mCherry/Venus stage reporter fluorescence; stronger effect = lower value; some inactives read as strong as hits;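 active means mCherry past -33% and 40 or more points under the early reporter, replicates agreeing; inconclusive means past -33% without that gap or agreement; tested in A549 cells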;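 further: scaled between vehicle wells and reference inhibitor wells; 23 nL library stock went into each well; one replicate is shown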
Vaccinia stage Venus: further read-out of Vaccinia stage, marked with its call; activity change (Venus), %; measured here: Venus reporter, other viral stage;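 negative = less Venus signal; first of two replicates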
Starred values were filed as active, the others as inactive; ? = inconclusive; . = not tested or not shown; & = joins results of further samples. These rows are one share of the data (hit frequency here may not be typical).

molecule | Vaccinia stage | Vaccinia stage Venus
CC(C)NC(=O)N(C)C[C@H]1Oc2c(NS(=O)(=O)c3ccc(Cl)cc3)cccc2C(=O)N([C@@H](C)CO)C[C@@H]1C | 6 | 13
CC(C)NC(=O)N(C)C[C@@H]1Oc2ccc(NS(=O)(=O)c3ccc(Cl)cc3)cc2CC(=O)N([C@H](C)CO)C[C@@H]1C | 10 | 9
CC=Cc1ccc2n(c1=O)C[C@H]1[C@H](CO)[C@@H](C(=O)NCCCN3CCOCC3)[C@@H]2N1Cc1cocn1 (mixture of isomers) | -3 | -1
O=C(Nc1ccccc1)N1C[C@@H]2N[C@H](C1)C2c1ccc(-c2cccnc2)cc1 (stereo partly drawn) | ? | .
C[C@H]1CN([C@@H](C)CO)C(=O)c2cccc(NS(=O)(=O)c3cn(C)cn3)c2O[C@H]1CN(C)CC1CC1 | 17 | 22
COCC(=O)N(C)C[C@@H]1Oc2ncc(C#Cc3ccncc3)cc2C(=O)N([C@H](C)CO)C[C@H]1C | 9 | 4
C[C@@H]1CN([C@H](C)CO)C(=O)Cc2cc(NC(=O)Cc3ccccc3)ccc2O[C@H]1CN(C)S(=O)(=O)c1cccs1 | 6 | 10
C[C@@H]1CN([C@@H](C)CO)C(=O)c2cc(-c3cccc(C#N)c3)cnc2O[C@H]1CN(C)Cc1ccncc1 | 21 | 15
CC(=O)N1[C@@H]2Cn3c(ccc(C4=CCCC4)c3=O)[C@H]1[C@@H](C(=O)NC1CCCC1)[C@@H]2CO | 4 | 12
CNC[C@@H]1Oc2ccc(NC(=O)Nc3c(C)noc3C)cc2C(=O)N([C@@H](C)CO)C[C@H]1C | 11 | 15
COc1ccc(CN(C)C[C@H]2OCc3cn(nn3)CCCC(=O)N([C@H](C)CO)C[C@@H]2C)cc1 | 42 | 8
C[C@H]1CN([C@@H](C)CO)C(=O)c2cccc(NC(=O)NC3CCCCC3)c2O[C@@H]1CN(C)C(=O)Nc1ccccc1 | -3 | -10
C[C@H]1CN([C@@H](C)CO)C(=O)c2cc(NS(=O)(=O)c3ccccc3)ccc2O[C@H]1CN(C)C(=O)Nc1ccc2c(c1)OCO2 | 14 | 5
C[C@H](NC(=O)C[C@@H]1C[C@H]2c3cc(NC(=O)Cc4ccncc4)ccc3O[C@H]2[C@@H](CO)O1)c1ccccc1 | -9 | -1
Cc1noc(C)c1NC(=O)N(C)C[C@H]1Oc2ncc(C#CC3CCCCC3)cc2C(=O)N([C@H](C)CO)C[C@@H]1C | 5 | -4
Cc1noc(C)c1NC(=O)N(C)C[C@@H]1Oc2ncc(C#CC3CCCC3)cc2C(=O)N([C@@H](C)CO)C[C@H]1C | 12 | 4
CO[C@@H]1CN(C)C(=O)c2cc(NC(C)=O)ccc2OC[C@@H](C)N(C(=O)NC2CCCCC2)C[C@H]1C | 12 | 12
C[C@@H]1CN([C@@H](C)CO)C(=O)c2cc(NC(=O)Nc3ccc4c(c3)OCO4)ccc2O[C@@H](C)CCCCO[C@@H]1CN(C)C(=O)Nc1ccc2c(c1)OCO2 | 6 | -6
COc1ccc(NC(=O)Nc2cccc3c2O[C@H](CN(C)S(=O)(=O)c2cccs2)[C@H](C)CN([C@@H](C)CO)C3=O)cc1 | 1 | -2
C[C@@H]1CN([C@H](C)CO)C(=O)c2cccc(NC(=O)Nc3cccc4ccccc34)c2O[C@@H]1CN(C)Cc1ccc(Cl)c(Cl)c1 | -22 | -17
N#Cc1cccc(-c2ccc3c(c2)[C@@H]2[C@@H](CCN2S(=O)(=O)c2ccccc2F)[C@@H](CO)N3)c1 | ? | .
CC(C)NC(=O)Nc1ccc2c(c1)C(=O)N([C@@H](C)CO)C[C@H](C)[C@H](CN(C)CC1CCCCC1)O2 | -1 | -1
COc1ccc(CNC(=O)C[C@H]2C=C[C@@H](NS(=O)(=O)c3cccc(OC)c3)[C@H](CO)O2)cc1 | 1 | 8
CCCNC(=O)N1C[C@@H](C)[C@@H](OC)CN(C)C(=O)c2cc(NS(C)(=O)=O)ccc2OC[C@@H]1C | 2 | 1
N#C[C@H]1[C@@H](c2ccc(C#Cc3ccc(F)cc3)cc2)[C@H](CO)N1C(=O)C1CCC1 | 14 | 16
CCOC(=O)N(C)C[C@H]1OCc2ccccc2-c2c(n(C)c3ccccc23)C(=O)N([C@@H](C)CO)C[C@@H]1C | -4 | -17
NC(=O)NCC#Cc1ccc2c(c1)[C@]1(C(=O)N2)[C@H](c2ccccc2OCCO)N2[C@H](c3ccccc3)[C@H](c3ccccc3)OC(=O)[C@H]2[C@@H]1C(=O)N1CCCCCCC1 | 10 | 11
COc1cccc(NC(=O)N[C@H]2CC[C@H](CC(=O)Nc3ccccc3)O[C@H]2CO)c1 | -19 | -13
C[C@@H]1CN([C@@H](C)CO)C(=O)c2cc(NC(=O)c3ccncc3)ccc2O[C@@H]1CN(C)Cc1ccc(-c2ccccc2)cc1 | -15 | -17
C[C@@H]1CN([C@H](C)CO)C(=O)c2cc(NS(=O)(=O)c3cn(C)cn3)ccc2O[C@@H](C)CCCCO[C@H]1CN(C)CC1CCCCC1 | 11 | 4
COCC(=O)N1CC(=O)N2[C@@H](CO)[C@@H](c3ccc(Br)cc3)[C@@H]2C1 | 38 | 7
CC(C)CC#Cc1cnc2c(c1)C(=O)N([C@H](C)CO)C[C@@H](C)[C@H](CN(C)Cc1ccc(C(=O)O)cc1)O2 | 9 | 4
CNC[C@@H]1Oc2c(NS(=O)(=O)c3ccc(F)cc3)cccc2C(=O)N([C@@H](C)CO)C[C@H]1C | 4 | 5
COc1ccc(C#Cc2ccc([C@H]3[C@@H](CO)N4C(=O)CN(C(=O)c5ccncc5)C[C@H]34)cc2)cc1 | 22 | 12
C[C@@H]1CN([C@@H](C)CO)C(=O)c2cc(NC(=O)Nc3ccc(F)cc3)ccc2O[C@H]1CN(C)C(=O)Nc1ccc2c(c1)OCO2 | 14 | 9
C[C@@H]1CN([C@@H](C)CO)C(=O)c2cccc(NC(=O)Nc3ccccc3)c2O[C@H]1CN(C)CC1CCCCC1 | -10 | -11
COc1ccc(S(=O)(=O)N(C)C[C@@H]2OCCCC[C@@H](C)Oc3ccc(NS(=O)(=O)c4cccs4)cc3C(=O)N([C@H](C)CO)C[C@@H]2C)cc1 | 6 | -2
Cc1cccc(-c2ccc(C3[C@H]4CNC[C@@H]3N4S(=O)(=O)c3ccccc3C)cc2)c1 (stereo partly drawn) | -5&5 | -11&-3
COc1cccc(-c2cn(CC[C@@H]3CC[C@@H](NC(=O)CC4CC4)[C@H](CO)O3)nn2)c1 | -9 | 1
CC(C)CC#Cc1cnc2c(c1)C(=O)N([C@@H](C)CO)C[C@@H](C)[C@H](CN(C)C(=O)Cc1ccncc1)O2 | -9 | -11
C[C@@H]1CN([C@@H](C)CO)C(=O)c2cc(C#CCN(C)C)cnc2O[C@@H]1CN(C)Cc1ccc2c(c1)OCO2 | 1 | 7
O=C(c1ccc(F)cc1)N1CCCCN2[C@H](C1)[C@H](c1ccc(C#CC3(O)CCCC3)cc1)[C@@H]2CO | -5 | -7
C[C@H](CO)N1C[C@H](C)[C@@H](CN(C)Cc2ccc(C(F)(F)F)cc2)OCCCC[C@H](C)Oc2ccc(NS(=O)(=O)c3cn(C)cn3)cc2C1=O | 4 | 0
CCCNC(=O)N[C@@H]1C=C[C@@H](CC(=O)N2CCN(C)CC2)O[C@@H]1CO | 0 | 17
O=C1O[C@H](c2ccccc2)[C@H](c2ccccc2)N2[C@H]1[C@@H](C(=O)O)[C@]1(C(=O)Nc3ccc(C#CCCO)cc31)[C@H]2c1ccc(O)cc1 | 20 | 21
O=C(c1cccc(F)c1)N1CCCCN2[C@H](CO)[C@@H](c3ccc(-c4cncnc4)cc3)[C@@H]2C1 | 22 | 4
O=C(Nc1cccc(F)c1)N1C[C@@H]2N[C@H](C1)C2c1ccc(-c2ccncc2)cc1 (stereo partly drawn) | ? | -5
COCC(=O)Nc1ccc2c(c1)OC[C@H](C)N(Cc1cccnc1)C[C@@H](C)[C@@H](OC)CN(C)C2=O | -8 | -4
O=C(N[C@@H]1CC[C@@H](CCNC(=O)C2CCOCC2)O[C@@H]1CO)c1ccncc1 | 2 | 5
C[C@H]1CN([C@@H](C)CO)C(=O)c2cc(NC(=O)CCCN(C)C)ccc2O[C@@H]1CN(C)Cc1ccncc1 | 16 | 4

More structures follow.
molecule | Vaccinia stage | Vaccinia stage Venus
Cc1ccc(S(=O)(=O)Nc2ccc3c(c2)C(=O)N([C@H](C)CO)C[C@@H](C)[C@@H](CN(C)C(=O)CCC(F)(F)F)OCCCC[C@H](C)O3)cc1 | 35 | 23
Cc1ccc(S(=O)(=O)Nc2ccc3c(c2)CC(=O)N([C@H](C)CO)C[C@H](C)[C@@H](CN(C)C)O3)cc1 | 6 | 7
COc1cccc(C#Cc2ccc([C@@H]3[C@@H](CO)N(C(=O)C4CCOCC4)[C@H]3C#N)cc2)c1 | -12 | -2
C[C@@H]1CN([C@@H](C)CO)C(=O)c2cc(NC(=O)Cc3ccccc3)ccc2O[C@H]1CN(C)S(=O)(=O)c1ccc(Cl)cc1 | -9 | -1
COc1ccc(CNC(=O)C[C@H]2CC[C@@H](NS(=O)(=O)c3cccc(OC)c3)[C@@H](CO)O2)cc1 | 5 | 0
O=C(C[C@H]1CC[C@H]2[C@@H](COC[C@H](O)CN2Cc2ccc(F)cc2)O1)N1CCc2ccccc2C1 | -23 | -11
O=C(C[C@@H]1C[C@@H]2c3cc(NC(=O)c4cccnc4)ccc3O[C@@H]2[C@@H](CO)O1)NCCc1ccccc1 | 4 | 2
COc1ccccc1-c1ccc([C@@H]2[C@@H](C#N)N(C(=O)CN(C)C)[C@H]2CO)cc1 | -28 | -16
C[C@H](CO)N1C[C@H](C)[C@H](CN(C)Cc2ccc(-c3ccccc3)cc2)OCc2ccccc2-c2ccccc2C1=O | -33 | -19
CC(C)NC(=O)Nc1ccc2c(c1)CC(=O)N([C@H](C)CO)C[C@@H](C)[C@@H](CN(C)Cc1ccc(Cl)c(Cl)c1)O2 | ? | .

Reformatted with values under each structure: entries from further up
Results follow in this order: Vaccinia stage, Vaccinia stage Venus
CC(C)NC(=O)N(C)C[C@H]1Oc2c(NS(=O)(=O)c3ccc(Cl)cc3)cccc2C(=O)N([C@@H](C)CO)C[C@@H]1C
  6, 13
CC(C)NC(=O)N(C)C[C@@H]1Oc2ccc(NS(=O)(=O)c3ccc(Cl)cc3)cc2CC(=O)N([C@H](C)CO)C[C@@H]1C
  10, 9
CC=Cc1ccc2n(c1=O)C[C@H]1[C@H](CO)[C@@H](C(=O)NCCCN3CCOCC3)[C@@H]2N1Cc1cocn1 (mixture of isomers)
  -3, -1
O=C(Nc1ccccc1)N1C[C@@H]2N[C@H](C1)C2c1ccc(-c2cccnc2)cc1 (stereo partly drawn)
  ?, .
C[C@H]1CN([C@@H](C)CO)C(=O)c2cccc(NS(=O)(=O)c3cn(C)cn3)c2O[C@H]1CN(C)CC1CC1
  17, 22
COCC(=O)N(C)C[C@@H]1Oc2ncc(C#Cc3ccncc3)cc2C(=O)N([C@H](C)CO)C[C@H]1C
  9, 4
C[C@@H]1CN([C@H](C)CO)C(=O)Cc2cc(NC(=O)Cc3ccccc3)ccc2O[C@H]1CN(C)S(=O)(=O)c1cccs1
  6, 10
C[C@@H]1CN([C@@H](C)CO)C(=O)c2cc(-c3cccc(C#N)c3)cnc2O[C@H]1CN(C)Cc1ccncc1
  21, 15
CC(=O)N1[C@@H]2Cn3c(ccc(C4=CCCC4)c3=O)[C@H]1[C@@H](C(=O)NC1CCCC1)[C@@H]2CO
  4, 12
CNC[C@@H]1Oc2ccc(NC(=O)Nc3c(C)noc3C)cc2C(=O)N([C@@H](C)CO)C[C@H]1C
  11, 15

Next results follow:
molecule | Vaccinia stage | Vaccinia stage Venus
CO[C@@H]1CN(C)C(=O)c2cc(NC(C)=O)ccc2OC[C@H](C)N(Cc2cc(F)ccc2F)C[C@@H]1C | -16 | -13
C[C@H]1CCCCO[C@@H](CN(C)C(=O)Nc2ccccc2)[C@@H](C)CN([C@@H](C)CO)C(=O)c2cc(NC(=O)Nc3ccc(F)cc3)ccc2O1 | 8 | 4
C[C@@H]1CN([C@H](C)CO)C(=O)c2cc(C#CC3(O)CCCC3)cnc2O[C@H]1CN(C)C(=O)Nc1ccc2c(c1)OCO2 | -6 | -6
O=C(C[C@@H]1CC[C@@H]2[C@H](COC[C@H](O)CN2S(=O)(=O)c2ccccc2Cl)O1)N1CCC(Cc2ccccc2)CC1 | -33 | -25
C[C@H]1CN([C@@H](C)CO)C(=O)c2cc(C#Cc3cccc(F)c3)cnc2O[C@@H]1CN(C)CC1CCOCC1 | -15 | -6
C[C@H]1CN([C@@H](C)CO)C(=O)Cc2cc(NC(=O)Nc3ccccc3)ccc2O[C@H]1CN(C)Cc1ccccc1 | ? | .
Cc1noc(C)c1S(=O)(=O)N(C)C[C@H]1OCCCC[C@H](C)Oc2ccc(NS(=O)(=O)c3ccc(Cl)cc3)cc2C(=O)N([C@H](C)CO)C[C@@H]1C | ? | .
O=C(NC1CCC1)[C@H]1[C@H](CO)[C@H]2Cn3c(ccc(C4=CCCC4)c3=O)[C@H]2N1C(=O)C1CCC1 | 15 | 21
COc1ccc(-c2ccc([C@H]3[C@@H](C#N)N(C(=O)C4CCCC4)[C@@H]3CO)cc2)cc1 | ? | .
C[C@@H]1CN([C@H](C)CO)C(=O)c2cc(NS(C)(=O)=O)ccc2O[C@H]1CN(C)Cc1ccncc1 | 10 | 8
C[C@@H]1CN([C@H](C)CO)C(=O)CCCn2cc(nn2)CO[C@@H]1CN(C)C(=O)Nc1ccc2c(c1)OCCO2 | 9 | 2

Screening data (PubChem)
